From PubChem
D2 potentiator: potentiates the human D2 dopamine receptor allosterically. potentiation, % (no concentration beside the values). actives 0.23% (n = 360,000). DiscoveRx D2 beta-arrestin cells, luminescence, 90 min; 100% = 57 uM dopamine signal. AID 624464; active = potentiation of 50% or more; inconclusive = 30% to 50%; inactive = 30% or less;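 note: compound concentration not given in the record; tested on top of an EC20 dose of dopamine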
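PathHunter D2 cells, attached overnight at 37 deg C, received compound in DMSO plus dopamine at EC20 (50 nM final) for 90 min at 37 deg C. Beta-arrestin recruitment was read as luminescence after 1 h with detection reagent at ambient temperature.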
Six1-Eya2 inh: Six1/Eya2 interaction inhibition. actives 0.56% (n = 360,000). activity change, % (concentration not given with the values). AlphaScreen GST-Six1/His-Eya2 binding, biochemical; stronger effect = lower value; control for the full effect not named in the record. Q15475+O00167; in the data active = activity change below about -65%; inconclusive = about -30% to -65%; inactive = above about -30%; note: % is set by controls: 0 for no effect and ±100 for the full control effect
Target sequence (O00167 whole entry, looked up): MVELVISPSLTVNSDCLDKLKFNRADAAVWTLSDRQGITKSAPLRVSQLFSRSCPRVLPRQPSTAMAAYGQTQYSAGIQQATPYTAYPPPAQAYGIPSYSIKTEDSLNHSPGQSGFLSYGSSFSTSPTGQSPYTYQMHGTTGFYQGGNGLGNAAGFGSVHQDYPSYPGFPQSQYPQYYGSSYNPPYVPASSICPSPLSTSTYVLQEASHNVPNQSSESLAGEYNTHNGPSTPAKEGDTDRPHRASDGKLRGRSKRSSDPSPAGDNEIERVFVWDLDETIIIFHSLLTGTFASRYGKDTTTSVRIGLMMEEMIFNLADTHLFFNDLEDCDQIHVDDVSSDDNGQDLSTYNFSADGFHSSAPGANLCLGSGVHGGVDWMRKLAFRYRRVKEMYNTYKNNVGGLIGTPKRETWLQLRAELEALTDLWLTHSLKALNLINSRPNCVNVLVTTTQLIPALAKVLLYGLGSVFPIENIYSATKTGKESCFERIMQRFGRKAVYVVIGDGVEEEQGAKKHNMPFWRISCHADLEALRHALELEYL
Target sequence (Q15475 whole entry, looked up): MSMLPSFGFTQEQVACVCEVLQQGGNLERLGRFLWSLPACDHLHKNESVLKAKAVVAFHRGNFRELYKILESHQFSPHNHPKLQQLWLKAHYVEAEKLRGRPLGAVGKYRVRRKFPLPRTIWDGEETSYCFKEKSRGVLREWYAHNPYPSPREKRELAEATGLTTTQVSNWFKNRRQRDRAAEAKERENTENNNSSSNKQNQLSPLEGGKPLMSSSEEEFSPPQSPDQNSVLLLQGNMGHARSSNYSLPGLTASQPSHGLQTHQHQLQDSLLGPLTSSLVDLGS
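AlphaScreen with GST-Six1 and His-Eya2 (5X mix: 250 nM and 500 nM), glutathione donor and nickel acceptor beads; buffer 50 mM Tris pH 8.0, 300 mM NaCl, 1 mM TCEP; 1 h at 37 C in the dark.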
D2 ag: agonists of human D2 dopamine receptor (beta-arrestin); P14416; DiscoveRx PathHunter D2 beta-arrestin, luminescence, 90 min; 100% = 57 uM dopamine signal; activation, % (no concentration beside the values); actives 0.084% (n = 360,000); in the data active = activation above about 40%; inconclusive = about 15% to 40%; inactive = below about 15%; note: compound concentration not given in the record; the text of the record calls up to 30% inactive
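Agonist mode: compounds alone added to overnight-plated D2 PathHunter cells for 90 min at 37 C, with 57 uM final dopamine (EC100) defining full response. Beta-arrestin recruitment detected by chemiluminescent reagent, read after 1 h at ambient temperature.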
TRPV1 potentiator: enhances activation of the human vanilloid receptor TRPV1. actives 0.02% (n = 320,000). Q8NER1. potentiation, % at 8.33 µM. TRPV1-expressing cells, Fluo-8 calcium influx, capsaicin EC20 potentiation; host cell line not named in the record; control for the full effect not named in the record; active means potentiation above 80%; inconclusive means 30% to 80%; inactive means below 30%; note: 0% is about no effect
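TRPV1-expressing cells were cultured overnight at 35.5C and loaded with Fluo-8 calcium dye for 40 to 90 min at room temperature. After a 10 s baseline, compound was added and calcium influx was read kinetically for 3 min (ex 480/em 520 nm).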
PINK1 expr mod: modulators of PINK1 expression; Potency, µM (highest dose often 76.6 µM), without a hit: at the top dose activation (PINK1 increase), actives largely listed as activators; PINK1 immunofluorescence, high-content cytometry, 24 h; actives 0.2% (n = 410,000); AID 624263; active = well fitted activation curve with a large enough effect; inconclusive = small, poorly fitted or top-dose-only effect; inactive = flat fitted curve, though single readings scatter; cell line not stated here;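 note: potency is the fitted concentration of half-maximal effect; % of control where 0% means no effect; nearly all actives have a fitted effect of over 65% in size; a mitochondrial uncoupler was the plate control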
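Compound titrations (5 concentrations, 24 h) on a stable cell line; DMSO and CCCP controls. Endpoint: fixed-cell PINK1 immunofluorescence with mitochondrial, cell and nuclear markers, scanned by microplate cytometer.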
CtBP-E1A inh: CtBP/E1A binding inhibition; AlphaScreen GST-E1A/His-CtBP binding, 1536-well; stronger effect = lower value; control for the full effect not named in the record; activity change, % (no concentration beside the values); actives 0.49% (n = 340,000); in the data active means activity change below about -65%; inconclusive means about -30% to -65%; inactive means above about -30%; note: % is set by controls: 0 for no effect and ±100 for the full control effect; compound concentration not given in the record
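Steps: dispense buffer (Tris pH 8.0, NaCl 300 mM, TCEP 1 mM, BSA, Tween 20); add 5X protein mix (GST-E1A, His-CtBP, 125 nM each); pin 23 nL compound; 2 h at 37 °C, dark; add 5X beads (50 ug/mL); 1 h; read.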
Sfp PPTase inh: Sfp phosphopantetheinyl transferase inhibition; Q9F4F7; Biochemical Sfp PPTase activity, qHTS; Potency, µM, without a hit: max response, negative = inhibition, actives largely listed as inhibitors; actives 3.5% (n = 310,000); AID 1490; active = well fitted inhibition curve with a large enough effect; inconclusive = small, poorly fitted or top-dose-only effect, or another doubt; inactive = no such curve, though single readings can be large or run the other way;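 note: the enzyme is Sfp with the accession as filed and its product quenches rhodamine fluorescence; potency is the fitted concentration of half-maximal effect; 0% = enzyme reaction without inhibitor and -100% = no enzyme wells; top concentration of the series not given in the record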
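Sfp 15 nM + cpd, 15 min RT; start w/ rhodamine-CoA 5 uM, BHQ-2-YbbR 12.5 uM (final); 50 mM Hepes pH 7.6, 10 mM MgCl2, 0.01% NP-40, 0.01% BSA; read 525/598 nm at 0 and 30 min.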
The depositor's hits bear a star; ? = inconclusive; . = no result given; & = joins results of further samples; [ ] = remark or other dose.

Sample of the layout (2 entries):
cpd	smiles	D2 potentiator	Six1-Eya2 inh	D2 ag	TRPV1 potentiator
1	Fc1cccc(CO/N=C/c2c(-c3ccccc3)nc3ccc(Cl)cn23)c1	-10	10	-2.2	-5
2	Cc1ccccc1C(=O)NC(=S)Nc1ccccc1C(F)(F)F	0	6	-2.3	-13

cpd	PINK1 expr mod	CtBP-E1A inh	Sfp PPTase inh
1	5.1%	-6	-8%
2	-1.7%	-2	-6%

The list itself, from the start:
cpd	smiles	D2 potentiator	Six1-Eya2 inh	D2 ag	TRPV1 potentiator
1	Fc1cccc(CO/N=C/c2c(-c3ccccc3)nc3ccc(Cl)cn23)c1	-10	10	-2.2	-5
2	Cc1ccccc1C(=O)NC(=S)Nc1ccccc1C(F)(F)F	0	6	-2.3	-13
3	O=C(CCc1nnc2ccc(NCc3ccco3)nn12)N1CCN(c2ccccc2F)CC1	-6	-5	-2.0	-11
4	CCN(CCCNC(=O)Cn1ncc2c([nH]c3ccc(C)cc32)c1=O)c1ccccc1	-7	4	0.9	9
5	COc1ccc(C)cc1NC(=O)CCCNC(=O)Cn1cnc2sc(C)c(C)c2c1=O	-12	-13	-6.5	-2
6	COc1ccc(C(=O)NC(=S)Nc2ccc3oc(=O)ccc3c2)cc1[N+](=O)[O-]	6	-12	0.2	-13
7	Cc1nc2sccn2c(=O)c1S(=O)(=O)N1CCN(c2ccc(F)cc2)CC1	-4	-2	-5.8	-9
8	COc1ccc(OC)c(/C=C2\SC(=S)N(Cc3cccnc3)C2=O)c1	7	3	-14	29
9	CCOC(=O)C1CCN(C(=O)Nc2ccc3snnc3c2)CC1	-26	7	-2.2	-18
10	CCOC(=O)N1CCN(c2cc(NCCC(=O)O)c3c4c(onc24)-c2ccccc2C3=O)CC1	7	-69*	0.6	-1
11	Cc1ccccc1OCCCN1C(=O)C(=O)c2cccc(C)c21	-31	-3	-14	?
12	CCOC(=O)c1c(NC(=O)c2cccs2)sc2c1CCC2	-6	14	0.2	.

cpd	PINK1 expr mod	CtBP-E1A inh	Sfp PPTase inh
1	5.1%	-6	-8%
2	-1.7%	-2	-6%
3	-0.4%	-4	3%
4	3.2%&0.3%	-2	7%
5	-0.5%	-19	11%
6	1.2%	6	-15%
7	1.6%&1.0%	7	13%
8	4.6%	3	?
9	2.5%	4	4%
10	3.2%	-70*	-24%
11	0.3%	-3	-25%
12	2.4%[38.3 µM]	8	-14%

Screen by screen, quoted from above.
Sfp PPTase inh, entries 2–12, in order: -6%, 3%, 7%, 11%, -15%, 13%, ?, 4%, -24%, -25%, -14%

(cont.)
cpd	smiles	D2 potentiator	Six1-Eya2 inh	D2 ag	TRPV1 potentiator
13	CN(c1ccccc1)S(=O)(=O)c1cccc(NC(=O)Cc2n[nH]c(=O)c3ccccc23)c1	-3	-4	-1.6	-8
14	CC1(C(=O)NCc2cccs2)CCN1CCc1ccccc1 (stereo not drawn)	-7	-2	-2.2	.
15	Cc1c(OCC(=O)NC2CC(C)(C)NC(C)(C)C2)ccc2c1oc(=O)c1ccccc12	-4	2	0.9	-6
16	CCCCc1c(O)nc(SCC(=O)NCCc2ccc(OC)c(OC)c2)[nH]c1=O	-9	8	1.9	-11
17	O=C(Cc1cccc(NC(=O)C2CCN(C(=O)CCc3ccccc3)CC2)c1)Nc1cccc(C(=O)N2CCOCC2)c1	.	4	0.1	.
18	COc1ccc(-n2nc(C(=O)Nc3ccc(OC)c(OC)c3)c3c4ccccc4n(C)c3c2=O)cc1	19	0	-0.5	7
19	CC1C(=O)N(Cc2cn(CCC3OCCCO3)nn2)CCS(=O)(=O)N1Cc1ccc(-c2ccc(F)nc2)cc1 (stereo not drawn)	3	2	-10	.
20	CC(=O)NC(CC(=O)O)c1ccccc1 (stereo not drawn)	-11	9	-3.0	13
21	NC(=O)c1c(NC(=O)C2CCCO2)sc2c1CCCCC2 (stereo not drawn)	-28	-12	-0.8	4
22	Cc1ccc2cc3cc(C(=O)NCCC(C)C)oc3nc2c1	-5	-4	-3.7	3
23	O=S(=O)(NCC(c1ccc2c(c1)OCO2)N1CCN(c2ccccc2)CC1)c1ccccc1 (stereo not drawn)	10	?	?	7
24	COc1ccc(-c2nc(N3CCOCC3)nc3n[nH]c(N)c23)cc1	-10	-3	-5.7	9

cpd	PINK1 expr mod	CtBP-E1A inh	Sfp PPTase inh
13	1.1%	-6	.
14	2.8%	2	.
15	-2.3%	-2	1%
16	0.2%	-2	20%
17	-0.4%	-3	.
18	6.8%	1	-7%
19	0.1%	4	.
20	0.0%	-2	5%
21	0.7%	-5	-83%
22	2.3%	-5	4%
23	-3.8%	1	.
24	-4.3%	4	5%

Other records.
cpd	smiles	D2 potentiator	Six1-Eya2 inh	D2 ag	TRPV1 potentiator
25	CCOc1ncccc1C(=O)Nc1ccc(F)c(F)c1	-4	8	-5.7	1
26	COc1cc(-c2nnc(SCc3cc(=O)oc4cc(C)ccc34)o2)cc(OC)c1OC	-2	-11	-2.1	-14
27	O=C(Nc1cccc(F)c1)c1ccc(-n2cncn2)c2ccoc12	-7	-11	3.6	.
28	CN1C2=NCCN2C(=O)c2ccccc21	-21	2	-1.6	3
29	Cn1c(SCc2nnc(-c3ccc(F)cc3)o2)nnc1C1COc2ccccc2O1 (stereo not drawn)	-7	-3	0.0	-6
30	CC(C)OP(=O)(c1ccc(N(C)C)cc1)C(Nc1ccccc1)c1cccnc1 (stereo not drawn)	-4	1	-1.7	-6
31	CCCC(Oc1ccc(Br)cc1)c1nc2c3cc(OC)c(OC)cc3nc(=S)n2[nH]1 (stereo not drawn)	-8	-9	-0.3	-1
32	O=C(CNCCc1ccc(Cl)cc1)Nc1ccc(C(=O)N2CCCCC2)cc1	-13	4	-0.8	4
33	Cc1nc(-c2cc(C#N)c(Sc3cccc(C(F)(F)F)c3)nc2C)cs1	-1	-5	-7.8	-12
34	O=C(NN=C1CCCC1)c1cccc(O)c1	-12	-2	-2.8	-3
35	Cc1ccc(-c2nc(N3CCOCC3)sc2C(=O)N2CCOCC2)cc1	6	11	-1.0	-28
36	CCC(C(=O)NC1CCCC1)N(C(=O)Cn1nnc(-c2ccc(C)o2)n1)c1ccccc1OC (stereo not drawn)	-4	6	-1.2	1

cpd	PINK1 expr mod	CtBP-E1A inh	Sfp PPTase inh
25	-0.7%	11	-2%
26	0.4%	-11	2%
27	3.5%	?	.
28	.	0	11%
29	0.0%	-1	7%
30	0.9%	-1	-2%
31	4.4%	3	26%
32	1.3%	-1	?
33	1.4%	.	14%
34	0.2%	-12	-2%
35	0.7%	9	3%
36	-0.5%	-1	-4%

Following part.
cpd	smiles	D2 potentiator	Six1-Eya2 inh	D2 ag	TRPV1 potentiator
37	CC(C)CN(C(=O)COC(=O)c1ccccc1NCc1ccco1)c1c(N)n(Cc2ccccc2)c(=O)[nH]c1=O	-4	4	-2.3	?
38	O=C(CC(=O)Nc1nc(C23CC4CC(CC(C4)C2)C3)cs1)NCCO	-3	1	6.9	-22
39	O=[N+]([O-])c1cccc(-c2nnc3ccccn23)c1	3	0	-5.7	-5
40	CCOc1ccccc1C1N(c2ccc(OC)cc2)C(=O)C2CCCN21 (stereo not drawn)	0	0	2.2	.
41	CC(C(=O)Nc1ccc(S(=O)(=O)N2CCCC2)cc1)N1CCN(C(=O)c2ccco2)CC1 (stereo not drawn)	-4	0	-0.9	1
42	Cc1ccc(CSc2ccc(-c3cccs3)nn2)cc1	-2	7	0.2	-2
43	COC(=O)C1=C(C)N=C2SC(C)C(=O)N2C1c1ccc(C(=O)OC)cc1 (stereo not drawn)	0	3	0.1	-10
44	COc1cc(C(=O)NCC(c2ccco2)N2CCc3ccccc3C2)cc(OC)c1OC (stereo not drawn)	-31	-12	-2.4	1
45	CCOc1ccc(C2Nc3ccccc3C(CC)(CC)O2)cc1 (stereo not drawn)	-4	-4	-5.5	8
46	CN(CC(=O)Nc1ccccc1Br)C(=O)c1cccc([N+](=O)[O-])c1	-3	-1	-3.5	14
47	Cc1[nH]nc(NCCO)c1[N+](=O)[O-]	-6	7	-5.0	3
48	CCCc1c(O)nc(SCCN(CC)CC)n(C(=O)c2ccccc2)c1=O	4	2	-1.6	1

cpd	PINK1 expr mod	CtBP-E1A inh	Sfp PPTase inh
37	5.9%	3	.
38	1.7%	-2	-5%
39	0.4%	-2	-3%
40	-0.4%	4	9%
41	.	0	7%
42	0.1%&13%	4	8%
43	1.0%	-2	34%[activator]
44	-1.5%	1	.
45	0.7%	3	8%
46	1.3%	-1	28%
47	1.2%	7	-2%
48	3.4%	0	-28%

Following part
cpd	smiles	D2 potentiator	Six1-Eya2 inh	D2 ag	TRPV1 potentiator
49	O=C1CCN(S(=O)(=O)c2cccs2)c2ccc(C(F)(F)F)cc2N1	-5	-2	1.8	-6
50	CCOc1ccc(N=Nc2ccc(O)c3ncccc23)cc1	-6	-13	-4.1	12
51	NC(Cc1ccccc1)C(O)(c1ccccc1)c1ccccc1 (stereo not drawn)	-4	2	-6.9	-2
52	Cc1cccc(-n2c(N)c(-c3nc4ccccc4n3C)c3nc4ccccc4nc32)c1	-10	10	-3.8	3
53	COc1cc(C(=S)N2CCOCC2)ccc1OC(=O)c1cc([N+](=O)[O-])c(C)c([N+](=O)[O-])c1	-4	0	1.0	1
54	COC(=O)[C@@H](NC(=O)Nc1cc(Cl)ccc1C)C(C)C	0	0	-1.8	.
55	COc1cc2c(cc1OC)C(C)N(C(=O)C1COc3ccccc3O1)CC2 (stereo not drawn)	3	-5	2.1	-1
56	CC(C)(C)n1nc2c(c1NC(=O)c1cccc(C(F)(F)F)c1)CS(=O)C2 (stereo not drawn)	-12	1	-5.1	-6
57	CCOc1ccc(OCCC(=O)OCC(=O)NCCc2ccc(S(N)(=O)=O)cc2)cc1	-2	-6	-6.7	8

cpd	PINK1 expr mod	CtBP-E1A inh	Sfp PPTase inh
49	0.9%	0	5%
50	10.0%	?	12%
51	10%	0	-3%
52	?	9	25%
53	1.4%	2	-9%
54	3.2%[38.3 µM]	-1	6%
55	2.9%	2	9%
56	1.4%	-2	4%
57	2.5%	2	.

Look-ups from above.
Result for `COc1cc2c(cc1OC)C(C)N(C(=O)C1COc3ccccc3O1)CC2` (stereo not drawn) under PINK1 expr mod: 2.9%
Result for `COc1cc(C(=S)N2CCOCC2)ccc1OC(=O)c1cc([N+](=O)[O-])c(C)c([N+](=O)[O-])c1` under Sfp PPTase inh: -9%
